Screens as filed in PubChem.
D2 potentiator: human D2 receptor positive allosteric modulation. AID 624464. potentiation, % (no concentration beside the values). P14416. 360,000 tested, 0.23% active. DiscoveRx D2 beta-arrestin cells, luminescence, 90 min; 100% = 57 uM dopamine signal; active = potentiation of 50% or more; inconclusive = 30% to 50%; inactive = 30% or less;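 note: compound concentration not given in the record; tested on top of an EC20 dose of dopamine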
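PathHunter D2 cells, attached overnight at 37 deg C, received compound in DMSO plus dopamine at EC20 (50 nM final) for 90 min at 37 deg C. Beta-arrestin recruitment was read as luminescence after 1 h with detection reagent at ambient temperature.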
D2 agonist: agonists of human D2 dopamine receptor (beta-arrestin) | AID 624465 | 360,000 tested, 0.084% active | activation, % (no concentration beside the values) | DiscoveRx PathHunter D2 beta-arrestin, luminescence, 90 min; 100% = 57 uM dopamine signal | P14416; in the data active = activation above about 40%; inconclusive = about 15% to 40%; inactive = below about 15%; note: compound concentration not given in the record; the text of the record calls up to 30% inactive
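Agonist mode: compounds alone added to overnight-plated D2 PathHunter cells for 90 min at 37 C, with 57 uM final dopamine (EC100) defining full response. Beta-arrestin recruitment detected by chemiluminescent reagent, read after 1 h at ambient temperature.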
CtBP-E1A inh: CtBP/E1A binding inhibition; 340,000 tested, 0.49% active; AlphaScreen GST-E1A/His-CtBP binding, 1536-well; stronger effect = lower value; control for the full effect not named in the record; activity change, % (no concentration beside the values); in the data active means activity change below about -65%; inconclusive means about -30% to -65%; inactive means above about -30%; note: % is set by controls: 0 for no effect and ±100 for the full control effect; compound concentration not given in the record
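AlphaScreen with 125 nM GST-E1A and 125 nM His-CtBP (5X stocks) in Tris pH 8.0, 300 mM NaCl, BSA, Tween 20, TCEP. Compounds preincubated 2 h at 37 deg C, then glutathione donor/nickel acceptor beads added for 1 h at 37 deg C in dark.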
Six1-Eya2 inh: Six1/Eya2 interaction inhibition | Q15475+O00167 | AlphaScreen GST-Six1/His-Eya2 binding, biochemical; stronger effect = lower value; control for the full effect not named in the record | activity change, % (concentration not given with the values) | 360,000 tested, 0.56% active | AID 651725; in the data active = activity change below about -65%; inconclusive = about -30% to -65%; inactive = above about -30%; note: % is set by controls: 0 for no effect and ±100 for the full control effect
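AlphaScreen luminescence read after one hour at 37 °C in darkness. Pin-transferred compounds met GST-Six1 and His-Eya2 protein (5X stock 250 nM/500 nM) plus glutathione donor and Ni-chelate acceptor beads (5X, 50 ug/mL).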
PINK1 modulator: modulators of PINK1 expression; PINK1 immunofluorescence, high-content cytometry, 24 h; Potency, µM (titrated, usually from 76.6 µM), without a hit: at the top dose activation (PINK1 increase), usual class: activators; 410,000 tested, 0.2% active; AID 624263; active = well fitted activation curve with a large enough effect; inconclusive = small, poorly fitted or top-dose-only effect; inactive = flat fitted curve, though single readings scatter; cell line not stated here;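 note: potency is the fitted concentration of half-maximal effect; % of control where 0% means no effect; nearly all actives have a fitted effect of over 65% in size; a mitochondrial uncoupler was the plate control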
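Decision-based qHTS: stable cells, 24 h exposure to five compound concentrations, CCCP as control. Fixed cells stained for PINK1 plus nuclear, mitochondrial and cell markers, cytometer read.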
TRPV1 potentiator: human TRPV1 potentiation. TRPV1-expressing cells, Fluo-8 calcium influx, capsaicin EC20 potentiation; host cell line not named in the record; control for the full effect not named in the record. potentiation, % at 8.33 µM. 320,000 tested, 0.02% active. Q8NER1; active means potentiation above 80%; inconclusive means 30% to 80%; inactive means below 30%; note: 0% is about no effect
Target sequence (Q8NER1 whole entry, looked up): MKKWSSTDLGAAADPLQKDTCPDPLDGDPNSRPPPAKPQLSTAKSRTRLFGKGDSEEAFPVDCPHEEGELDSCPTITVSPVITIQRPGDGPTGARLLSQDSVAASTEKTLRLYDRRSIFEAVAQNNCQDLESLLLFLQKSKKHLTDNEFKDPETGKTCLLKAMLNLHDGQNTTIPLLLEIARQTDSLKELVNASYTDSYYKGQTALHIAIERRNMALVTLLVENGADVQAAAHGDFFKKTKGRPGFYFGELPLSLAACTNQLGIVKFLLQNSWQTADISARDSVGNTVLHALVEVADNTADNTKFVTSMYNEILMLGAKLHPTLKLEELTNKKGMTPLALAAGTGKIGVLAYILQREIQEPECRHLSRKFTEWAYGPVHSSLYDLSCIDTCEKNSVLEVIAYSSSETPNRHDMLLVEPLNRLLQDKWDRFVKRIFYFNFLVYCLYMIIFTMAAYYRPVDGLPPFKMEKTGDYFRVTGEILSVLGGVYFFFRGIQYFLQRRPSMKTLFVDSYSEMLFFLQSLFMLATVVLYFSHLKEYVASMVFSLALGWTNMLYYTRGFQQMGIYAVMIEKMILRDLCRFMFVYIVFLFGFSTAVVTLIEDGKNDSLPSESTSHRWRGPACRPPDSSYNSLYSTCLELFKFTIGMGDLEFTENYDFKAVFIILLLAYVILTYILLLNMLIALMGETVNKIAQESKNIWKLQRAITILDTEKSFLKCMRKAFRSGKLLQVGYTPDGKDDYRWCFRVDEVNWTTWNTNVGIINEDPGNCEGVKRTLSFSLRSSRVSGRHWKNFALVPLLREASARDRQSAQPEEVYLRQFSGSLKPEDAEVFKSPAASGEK
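Cells expressing TRPV1 were dye-loaded with Fluo-8 and read kinetically: 10 s baseline, 3 min after compound (agonist portion), then 2 min after EC20 capsaicin (allosteric enhancer portion). Calcium-bound dye fluorescence at 480/520 nm.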
Sfp inh: inhibitors of Bacillus subtilis Sfp phosphopantetheinyl transferase; Q9F4F7; Biochemical Sfp PPTase activity, qHTS; Potency, µM, without a hit: max response, negative = inhibition, usual class: inhibitors; 310,000 tested, 3.5% active; AID 1490; active = well fitted inhibition curve with a large enough effect; inconclusive = small, poorly fitted or top-dose-only effect, or another doubt; inactive = no such curve, though single readings can be large or run the other way;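 note: the enzyme is Sfp with the accession as filed and its product quenches rhodamine fluorescence; potency is the fitted concentration of half-maximal effect; 0% = enzyme reaction without inhibitor and -100% = no enzyme wells; top concentration of the series not given in the record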
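With Hepes-Na pH 7.6 buffer containing 10 mM MgCl2, Sfp (15 nM) modified BHQ-2-YbbR (12.5 uM) using rhodamine-CoA (5 uM). Two reads 30 minutes apart at 525/598 nm yielded each well's rate.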
Active calls of the source: *; ? = inconclusive; . = no result given; & = joins results of further samples; [ ] = dose if it differs, or a comment.

SMILES	D2 potentiator	D2 agonist	CtBP-E1A inh	Six1-Eya2 inh	PINK1 modulator	TRPV1 potentiator	Sfp inh
CC(C)c1ccc(CN(C(=O)c2ccco2)C2CCS(=O)(=O)C2)cc1 (stereo not drawn)	-4	-2.0	21	-4	2.9%	-25	19%
COc1cc(N/C(=N/S(=O)(=O)c2ccccc2)c2ccccc2)ncn1	-11	0.0	9	4	-2.2%	18	-12%
Oc1ccccc1-c1nc(NCC2CCCO2)c2ccccc2n1 (stereo not drawn)	-17	-0.2	-1	9	-0.1%	-10	8%
COc1cc(NC(=O)Cn2nnc(-c3ccccc3N)n2)cc(OC)c1	-6	-1.5	5	-5	-4.6%[38.3 µM]	-4	9%
COC(=O)c1ccc(NC(=O)C2CC(=O)N(c3cc(C)ccc3C)C2)cc1 (stereo not drawn)	-6	-1.6	1	-7	3.3%	-4	-1%
CCn1c(C)cc(/C=C2\NC(=O)N(CC(=O)Nc3ccc(F)cc3)C2=O)c1C	-5	-6.7	-8	0	0.6%	-6	2%
COc1ccc(S(=O)(=O)N(NC2=NS(=O)(=O)c3ccccc32)C(=O)C(C)C)cc1	-1	0.8	3	-7	0.1%	1	17%
O=C(COC(=O)c1ccncc1)Nc1cccc(Cl)c1	-11	-0.5	-4	-7	-0.7%	4	-1%
O=C(CCCNS(=O)(=O)c1cccc2nsnc12)NCc1ccccc1	3	0.7	7	5	1.6%	-10	0%
COc1cccc(CN(C)C(=O)Cn2cc(C)c(=O)[nH]c2=O)c1	-7	-2.0	-14	6	1.7%	.	.
Cc1cc(NC(=O)CN2C(=O)NC(C)(c3ccccc3)C2=O)no1 (stereo not drawn)	-6	-1.2	3	3	1.3%[38.3 µM]	12	19%
CC1CCC(NC(=O)C2c3ccccc3C(=O)N2Cc2ccc3c(c2)OCO3)CC1 (stereo not drawn)	-5	0.4	-5	2	0.0%	-4	8%
O=[N+]([O-])c1ccccc1NCc1ccc(Cl)cc1	4	-2.7	-23	?	-2.3%	-5	-18%
CN(Cc1ccco1)S(=O)(=O)c1nnc(NC(=O)c2ccc(F)cc2)s1	-1	-6.5	.	14	1.9%	3	-12%
Cc1ccc(-c2nc3ccc(C)cn3c2Cc2ccsc2)cc1	-10	-5.8	3	-9	11%	.	.
Cn1c(SCc2ccccc2Cl)nnc1-c1cnccn1	1	2.8	-2	5	0.1%	-9	13%
Cc1cccc(NC(=S)Nc2cccc(C)n2)n1	-1	0.3	-6	-10	2.4%	25	19%
CCOC(=O)c1c(NC(=O)c2nn(CC)cc2Br)c(C#N)nn1-c1ccccc1	-3	-1.0	-2	-2	6.2%[38.3 µM]	28	9%
CC(C)(C)OC(=O)N1CCN(c2ccc(CNC(=O)c3ccc(Cl)cc3)cc2)CC1	-12	3.6	-16	-1	.	2	32%[activator]
O=C(Nc1c2c(nn1-c1ccccc1)CS(=O)C2)c1ccc2c(c1)OCO2 (stereo not drawn)	-8	-4.0	-3	7	0.1%	4	7%
COc1ccc(N(CC(=O)Nc2ccc(C)c(C)c2)S(=O)(=O)c2c(C)noc2C)cc1	-18	-2.3	.	-3	2.5%	23	16%
CN1C=CC=C/C1=C1\SC(=S)N(c2ccccc2)C1=O	-20	-8.5	-2	0	-0.4%	16	25µM*
CCOCCn1c(CCCO)nc2ccccc21	3	-1.2	-2	2	0.1%	2	18%
C(=C\c1nc(-c2ccncc2)no1)/c1ccccc1	-8	2.4	-2	1	0.0%	8	21%
CCOC(=O)C(CCCP(=O)(c1ccccc1)c1ccccc1)(NC(C)=O)C(=O)OCC	-1	4.0	-9	3	-0.4%	-7	10%
SMILES	D2 potentiator	D2 agonist	CtBP-E1A inh	Six1-Eya2 inh	PINK1 modulator	TRPV1 potentiator	Sfp inh
COc1cc(C2C(C(=O)c3ccco3)=C(O)C(=O)N2c2cc(C)on2)cc(Br)c1O (stereo not drawn)	1	-0.2	-3	-5	1.9%	17	-4%
O=C(CC1SC(=Nc2ccccc2)N(CCCO)C1=O)Nc1ccc(Cl)cc1 (stereo not drawn)	-27	-0.8	2	0	1.7%	3	9%
O=S(=O)(NCc1csc(-c2cccnc2)n1)c1ccc(Br)cc1	-6	-1.7	4	1	-0.9%	-5	17%
CCN(C(=O)COC(=O)CCOc1cc(C)ccc1C)c1c(N)n(Cc2ccccc2)c(=O)[nH]c1=O	2	-2.9	0	1	-1.3%	.	.
CC1(C)CC(=O)C/C(=N/NC(=O)c2ccc(-c3ccccc3)cc2)C1	-1	-4.9	-12	-7	0.6%	-8	15%
CC[C@@]1(c2ccccc2OC)ON(c2ccccc2C(F)(F)F)C1=O	-1	-7.5	17	10	-1.5%	-6	.
O=C(CN1C(=O)NC2(CCCC2)C1=O)Nc1ccc(F)c(Cl)c1	-8	6.7	-11	-9	0.5%	-14	-12%
COc1cc(CNCCc2ccc(S(N)(=O)=O)cc2)ccc1OCC(=O)NC(C)(C)C	-26	0.1	17	14	-0.6%	-2	13%
Cc1ccc(-c2nnc(NC(=O)c3ccco3)s2)cc1	-4	-3.2	1	0	0.7%	7	?
O=S(=O)(/N=C(/Nc1cc(N2CCOCC2)ncn1)c1ccc(F)cc1)c1ccccc1	-13&-11	-1.0&-1.8	3&5	8&4	1.0%	20	20%
COCCNc1ncnc2c1ncn2[C@H]1CN(CCN2CCOCC2)C[C@@H](CO)O1	-4	-1.4	-10	10	-1.0%	.	.
Cc1ccc(N(C)S(=O)(=O)c2cc3c(cc2C)NC(=O)CO3)cc1	4	0.3	-3	0	9.2%	6	-1%
COC(=O)c1cc(C(=O)OC)n(Cc2ccc(Br)cc2)n1	-8	2.1	7	4	-4.6%[38.3 µM]	-4	20%
CCNC(=S)N1CCn2c(nc3ccccc32)C1	2	4.2	3	3	11%	-4	-5%
CCCCn1c(N)c(N(CCOC)C(=O)COC(=O)C(C)Oc2ccc(Cl)cc2)c(=O)[nH]c1=O (stereo not drawn)	-27	0.9	12	13	1.3%	-1	.
CN(Cc1cn(C)nc1-c1ccccc1F)CC1CCN(Cc2ccccc2)CC1	-30	-5.9	-3	2	0.4%	-12	6%
Cc1csc(=O)n1CC(=O)Nc1ccc(Cl)cc1F	-4	-0.5	-3	8	-1.8%	4	.
O=C(COc1ccc(S(=O)(=O)Nc2ccccc2)cc1)NCc1ccncc1	-3	5.4	3	5	1.3%	-6	-7%
Cc1nn(-c2cccc(Cl)c2)nc1C(=O)Nc1cccc(C(=O)NC2CC2)c1	3	1.0	3	-2	3.7%	-14	.
Cc1ccc(S(=O)(=O)Cn2nnnc2C(C(C)C)N2CCC(C(N)=O)CC2)cc1 (stereo not drawn)	-5	-3.0	24	7	4.2%	5	-6%
COCCn1cnc2c1c(=O)n(CC(=O)c1ccc3c(c1)OCCO3)c(=O)n2Cc1ccccc1	-2	1.5	4	0	0.4%	8	-9%
COc1ccc(C)cc1NC(=O)CN(c1ccccc1F)S(C)(=O)=O	-4	-1.4	3	1	0.5%	-6	22%
COC(=O)[C@]1(Cc2ccccc2)N[C@H](CN(C)C(=O)Nc2ccc(C)cc2)[C@@H]2C(=O)N(C)C(=O)[C@@H]21	.	-1.1	3	3	-0.2%	.	.

Entries above that have an aryl methoxy group, in the order listed:
SMILES	D2 potentiator	D2 agonist	CtBP-E1A inh	Six1-Eya2 inh	PINK1 modulator	TRPV1 potentiator	Sfp inh
COc1cc(N/C(=N/S(=O)(=O)c2ccccc2)c2ccccc2)ncn1	-11	0.0	9	4	-2.2%	18	-12%
COc1cc(NC(=O)Cn2nnc(-c3ccccc3N)n2)cc(OC)c1	-6	-1.5	5	-5	-4.6%[38.3 µM]	-4	9%
COc1ccc(S(=O)(=O)N(NC2=NS(=O)(=O)c3ccccc32)C(=O)C(C)C)cc1	-1	0.8	3	-7	0.1%	1	17%
COc1cccc(CN(C)C(=O)Cn2cc(C)c(=O)[nH]c2=O)c1	-7	-2.0	-14	6	1.7%	.	.
COc1ccc(N(CC(=O)Nc2ccc(C)c(C)c2)S(=O)(=O)c2c(C)noc2C)cc1	-18	-2.3	.	-3	2.5%	23	16%
COc1cc(C2C(C(=O)c3ccco3)=C(O)C(=O)N2c2cc(C)on2)cc(Br)c1O (stereo not drawn)	1	-0.2	-3	-5	1.9%	17	-4%
CC[C@@]1(c2ccccc2OC)ON(c2ccccc2C(F)(F)F)C1=O	-1	-7.5	17	10	-1.5%	-6	.
COc1cc(CNCCc2ccc(S(N)(=O)=O)cc2)ccc1OCC(=O)NC(C)(C)C	-26	0.1	17	14	-0.6%	-2	13%
COc1ccc(C)cc1NC(=O)CN(c1ccccc1F)S(C)(=O)=O	-4	-1.4	3	1	0.5%	-6	22%
